# Source: PubChem BioAssay (National Center for Advancing Translational Sciences (NCATS))
# TRPML1 agonist: agonists of human TRPML1 channel; Q9GZU1; TRPML1-expressing cells, Ca2+ dye fluorescence, FDSS; host cell line not named in the record; reference of the full effect not given here; activation, % (test concentration not listed); 410,000 compounds, 0.12% hits; AID 624414; in the data active = activation above about 50%; inconclusive = about 30% to 50%; inactive = below about 30%; also: 0% is about no effect; the text of the record puts the active cut at 80%
# Target sequence (Q9GZU1 whole entry, looked up): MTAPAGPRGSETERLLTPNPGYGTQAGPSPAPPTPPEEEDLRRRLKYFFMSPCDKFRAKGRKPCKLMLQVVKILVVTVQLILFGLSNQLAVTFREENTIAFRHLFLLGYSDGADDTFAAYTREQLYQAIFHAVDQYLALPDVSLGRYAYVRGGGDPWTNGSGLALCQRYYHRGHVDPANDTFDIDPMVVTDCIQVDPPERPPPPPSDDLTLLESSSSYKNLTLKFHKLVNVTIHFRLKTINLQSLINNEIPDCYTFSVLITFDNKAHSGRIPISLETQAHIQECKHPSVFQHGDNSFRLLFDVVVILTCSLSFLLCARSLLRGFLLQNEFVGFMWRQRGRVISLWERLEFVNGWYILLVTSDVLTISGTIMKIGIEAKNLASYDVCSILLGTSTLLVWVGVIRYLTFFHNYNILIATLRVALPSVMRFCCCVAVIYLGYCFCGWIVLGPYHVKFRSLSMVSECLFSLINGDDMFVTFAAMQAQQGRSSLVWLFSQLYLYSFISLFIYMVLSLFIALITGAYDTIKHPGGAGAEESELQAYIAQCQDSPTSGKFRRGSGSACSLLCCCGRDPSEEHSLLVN
#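 Cells: TRPML1-DL, 1X Tet inducer, ~16 h at 37 degrees C/5% CO2. Dye: ABD Ca8 no-wash + quencher, 45-90 min RT. Read: 10 s baseline, compound add, 110 s agonist phase; 54-4 EC80 (4uM final), 110 s antagonist phase.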
# PINK1 expr mod: PINK1 expression modulation; PINK1 immunofluorescence, high-content cytometry, 24 h; Potency, µM (doses to about 76.6 µM), inactives show at the top dose activation (PINK1 increase), usual class: activators; 410,000 compounds, 0.2% hits; AID 624263; active = well fitted activation curve with a large enough effect; inconclusive = small, poorly fitted or top-dose-only effect; inactive = flat fitted curve, though single readings scatter; cell line not stated here;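 also: potency is read from the fitted curve at half-maximal effect; % of control where 0% means no effect; nearly all actives have a fitted effect of over 65% in size; a mitochondrial uncoupler was the plate control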
#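 Fluorescence from anti-PINK1 antibody, together with nuclear and cell stains, was scanned on a laser-scanning cytometer. Before staining, stable-line cells were incubated 24 hours with compounds at 5 concentrations; primary antibody 12 h at 10 degrees C.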
# * = called active by the depositor.
SMILES,TRPML1 agonist,PINK1 expr mod
O=C(c1ccc(F)cc1)c1cn(Cc2ccccc2)c2cc3c(cc2c1=O)OCO3,1.8,0.7%
COc1ccc(-c2noc(CCC(=O)Nc3ccccc3Cl)n2)cc1OC,1.2,1.1%
CC1=C(C(=O)Nc2ccc(C)cc2C)C(c2cccs2)n2nc(SCc3cccc(C)c3)nc2N1 (stereo not drawn),0.6,1.4%
CCCOc1ccc(C(=O)Nc2ccc3oc(-c4cccc(Cl)c4Cl)nc3c2)cc1,0.1,0.2%
COc1cc(OC)cc(C(=O)Nc2ccc3oc(-c4ccccc4C)nc3c2)c1,1.4,-1.1%
COc1ccc(CNC(=O)c2cccc(N3CCCS3(=O)=O)c2)cc1OC,-0.1,-0.6%
Cc1cc(O)c(C(c2ccccc2)N2CCN(c3ccccc3F)CC2)c(=O)n1Cc1ccco1 (stereo not drawn),1.5,1.0%
COc1ccc(N(CC(=O)N2CCN(c3cccc(OC)c3)CC2)S(=O)(=O)c2c(C)noc2C)cc1,-0.6,0.2%
CCOCCCn1c(=N)c(C(=O)NCc2ccco2)cc2c(=O)n3ccccc3nc21,-0.6,-0.4%
O=S(=O)(Nc1cccc(-c2ccc(N3CCCCCC3)nn2)c1)c1ccccc1,2.3,-0.5%
COc1ccc(-c2cc(C(=O)Nc3ccc(C#N)cc3)no2)cc1,-0.3,0.1%
Cc1ccc(CNC(=O)CSc2nc3ccccc3nc2Cc2ccc(C)cc2)cc1,-0.5,4.2%
COc1ccc(C(=O)NCc2nnc(SCC(=O)Nc3ccc(C)cc3)n2-c2ccccc2)cc1,1.8,2.8%
CCC(=O)N1CCc2cc(Br)cc(S(=O)(=O)CCC(=O)Nc3ccc(CC)cc3)c21,-0.3,1.2%
O=C(CSc1nncn2c1cc1sccc12)Nc1ccccc1C(F)(F)F,1.4,-1.8%
CCc1ccc2c(c1)NC(c1cccnc1)=NC(c1ccc(C(C)(C)C)cc1)=N2,1.3,16%
CN(Cc1ccccc1)C(=O)C1CCN(Cc2cc3ccccc3n2Cc2ccccc2)CC1,2.5,5.5%
O=C(CCS(=O)(=O)c1ccccc1)N(Cc1cccnc1)c1nc2ccc(F)cc2s1,1.6,11%
CC(C)NC(=O)C(c1ccccc1)N1Cc2ccccc2C1=O (stereo not drawn),2.1,19%
CCOC(=O)c1cccc(NC(=O)N2CC(CC)Oc3ccccc32)c1 (stereo not drawn),2.3,-0.6%
CCOC(=O)c1cc2c(=O)n3ccccc3nc2n(Cc2ccco2)c1=NC(=O)c1ccc(F)cc1,8.8,19%
COC(=O)c1ccccc1NC(=O)c1ccc(COc2ccccc2Cl)o1,-0.5,0.8%
COc1ccc(CCNC(=O)CSc2cn(CCNC(=O)c3ccc(OC)c(OC)c3)c3ccccc23)cc1OC,-0.4,5.4%
COc1ccc(-c2onc(C)c2C)cc1S(=O)(=O)NCC1CCN(Cc2cccc(F)c2)CC1,0.8,1.2%
Cc1ccc2nc(-c3c[nH]c4ccccc34)c(Nc3ccc(F)cc3)n2c1,-0.5,6.3%
CCCCOc1ccc(CNC(=O)CN2C(=O)CCn3nc(-c4cn(C)c5ccccc45)cc32)cc1,0.6,6.6%
CCCc1nnc(NC(=O)c2cc(=O)c3cc(C)c(C)cc3o2)s1,-0.3,0.8%
COc1ccc(CCNC(=O)CCCn2c(=O)c3ccccc3n(Cc3ccccc3C)c2=O)cc1OC,0.5,0.4%
Cc1ccccc1Cn1c(-c2cccs2)nc2ccccc21,1.7,-0.7%
COC(=O)c1c(SC)nc2ccccc2c1OCc1cc(C)ccc1C,1.0,7.8%
COc1ccc(OC)c(NC(=O)c2cccn2-c2nnc(N3CCCCC3)s2)c1,1.3,-0.3%
Cc1cccc(N2CCN(S(=O)(=O)c3ccc4oc(=O)c5ncn(C)c5c4c3)CC2)c1C,0.4,-1.1%
O=C(CSc1ncc(-c2ccccc2)[nH]1)Nc1ccc(F)cc1F,3.0,0.9%
CCOc1ccc2nc(NC(=O)c3nc(SC)ncc3Cl)sc2c1,-0.5,6.3%
CCOC(=O)C1CCCN(S(=O)(=O)c2ccc(N3CCCCS3(=O)=O)cc2)C1 (stereo not drawn),-0.5,1.7%
COc1cccc(CNc2nc3c(-c4cccc(C)c4)nnn3c3ccccc23)c1,-0.9,0.7%
Cc1nc2ccc(S(=O)(=O)CCC(=O)Nc3ccc(Cl)cc3)cc2s1,0.4,-0.2%
O=C(Nc1ccc2nn(-c3ccc(F)cc3)nc2c1)c1cccc2c(Cl)cccc12,-0.5,-0.2%
Cc1ccc(C2c3c(-c4cc(C)ccc4O)n[nH]c3C(=O)N2Cc2ccco2)cc1 (stereo not drawn),2.3,3.9%
CCc1ccc2oc(-c3cc(NC(=O)C(C)C)cc(C)c3O)nc2c1,1.0,-1.1%
O=C(C1CCCCC1)N(Cc1cccnc1)c1nc2c(F)cccc2s1,-0.2,-1.0%
Cc1cc(Cl)ccc1NC(=O)CCS(=O)(=O)c1ccc2c(c1)CC(C)N2C(=O)C1CC1 (stereo not drawn),-0.2,1.5%
CCCCc1nn2c(=O)cc(COC(=O)C3CCCCC3)nc2s1,-0.7,0.7%
CC(C)CC(=O)Nc1ccc(C(=O)OCc2cc(=O)n3nc(C4CCCCC4)sc3n2)cc1,1.7,0.7%
CCCN1C(=O)c2[nH]nc(-c3ccccc3O)c2C1c1cccc(OCc2ccccc2)c1 (stereo not drawn),0.5,27%
Cc1noc(Cn2c(=O)c3ccccc3n(CC(=O)Nc3cc(Cl)ccc3C)c2=O)n1,0.8,-0.2%
COc1ccc(-n2nnc(-c3nc(-c4ccccc4C)no3)c2N)cc1Cl,1.2,-0.3%
O=C(NCc1ccc(Cl)cc1)c1cc(-c2ccc(F)cc2)on1,-0.4,-0.8%
CN1CCN(C(=O)c2ccc3c(c2)N(Cc2ccc(F)cc2)C(=O)c2ccccc2S3(=O)=O)CC1,0.3,3.2%
O=C(Nc1ccc(Cl)cc1)c1cc2c(Cl)nc3ccccc3c2s1,-0.1,-0.7%
COc1ccc(CNC(=O)c2ccc3c(c2)N(Cc2c(F)cccc2Cl)C(=O)CS3)cc1,1.0,1.1%
CC(C)OCCCn1c(=O)c2ccccc2n2c(-c3ccccc3)nnc12,0.0,1.2%
Cc1ccc(C)c(NC(=O)C2CCN(c3ncnc4c3nc3n4CCCCC3)CC2)c1,0.9,1.3%
COc1ccc(Br)c2c1-c1nc(NC(=O)c3cccc(C)c3)sc1C2,0.6,-0.5%
Cc1ccnc(NS(=O)(=O)c2ccc(NC(=O)c3nc(SC(C)C)ncc3Cl)cc2)n1,0.8,1.2%
CC(C)CC(=O)NCC(c1ccc2c(c1)OCO2)N1CCN(c2ccccc2)CC1 (stereo not drawn),0.0,-0.5%
Cc1ccc2c(C(=O)CNc3nccs3)c(C)[nH]c2c1,-0.5,-0.5%
CCOc1ccc(NC(=O)CCS(=O)(=O)c2ccc3c(c2)n(C)c(=O)c(=O)n3C)cc1,0.8,1.0%
O=C(NCCc1ccccc1)c1nnc(Cc2cccc(F)c2)o1,0.5,12%
O=C(O)c1cccc(NC(=O)c2cccc(S(=O)(=O)Nc3cccc(F)c3)c2)c1,0.6,-0.2%
O=C(COc1ccc(Cl)cc1)NCC(c1ccco1)S(=O)(=O)c1ccc(Cl)cc1 (stereo not drawn),1.4,0.4%
Cn1c(SCC(=O)Nc2ccccc2)nnc1-c1ccccc1,-0.9,-0.7%
CCc1ccccc1NC(=O)c1ccc2[nH]c(C)c(C)c2c1,0.1,2.6%

# Grouped by structure, the entries above with an aryl methoxy group
SMILES,TRPML1 agonist,PINK1 expr mod
COc1ccc(-c2noc(CCC(=O)Nc3ccccc3Cl)n2)cc1OC,1.2,1.1%
COc1cc(OC)cc(C(=O)Nc2ccc3oc(-c4ccccc4C)nc3c2)c1,1.4,-1.1%
COc1ccc(CNC(=O)c2cccc(N3CCCS3(=O)=O)c2)cc1OC,-0.1,-0.6%
COc1ccc(N(CC(=O)N2CCN(c3cccc(OC)c3)CC2)S(=O)(=O)c2c(C)noc2C)cc1,-0.6,0.2%
COc1ccc(-c2cc(C(=O)Nc3ccc(C#N)cc3)no2)cc1,-0.3,0.1%
COc1ccc(C(=O)NCc2nnc(SCC(=O)Nc3ccc(C)cc3)n2-c2ccccc2)cc1,1.8,2.8%
COc1ccc(CCNC(=O)CSc2cn(CCNC(=O)c3ccc(OC)c(OC)c3)c3ccccc23)cc1OC,-0.4,5.4%
COc1ccc(-c2onc(C)c2C)cc1S(=O)(=O)NCC1CCN(Cc2cccc(F)c2)CC1,0.8,1.2%
COc1ccc(CCNC(=O)CCCn2c(=O)c3ccccc3n(Cc3ccccc3C)c2=O)cc1OC,0.5,0.4%
COc1ccc(OC)c(NC(=O)c2cccn2-c2nnc(N3CCCCC3)s2)c1,1.3,-0.3%
COc1cccc(CNc2nc3c(-c4cccc(C)c4)nnn3c3ccccc23)c1,-0.9,0.7%
COc1ccc(-n2nnc(-c3nc(-c4ccccc4C)no3)c2N)cc1Cl,1.2,-0.3%
COc1ccc(CNC(=O)c2ccc3c(c2)N(Cc2c(F)cccc2Cl)C(=O)CS3)cc1,1.0,1.1%
COc1ccc(Br)c2c1-c1nc(NC(=O)c3cccc(C)c3)sc1C2,0.6,-0.5%

# These rows are one share of the data; rates above refer to the full screens.
